Bioassay records: PubChem, Johns Hopkins Ion Channel Center
KCNQ2 pot: KCNQ2 (rat) channel potentiation; O88943; CHO-K1 KCNQ2, FluxOR thallium flux fluorescence; active compounds read high; B-score at 10 µM; 310,000 tested, 0.54% active; AID 2239;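 active = fluorescence ratio B-score at least 3 SD of library B-scores, with initial fluorescence B-score within 3 SD, cut at about 5.3 in these data; same plate scores as AID 2156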;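 also: B-score of peak minus minimum over baseline fluorescence ratio after K+ and Tl+ stimulus; positive B-score means potentiation of KCNQ2 with more thallium influx and brighter signal; only the inactives scoring about 0 or higher are listed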
Target sequence (O88943 whole entry, looked up): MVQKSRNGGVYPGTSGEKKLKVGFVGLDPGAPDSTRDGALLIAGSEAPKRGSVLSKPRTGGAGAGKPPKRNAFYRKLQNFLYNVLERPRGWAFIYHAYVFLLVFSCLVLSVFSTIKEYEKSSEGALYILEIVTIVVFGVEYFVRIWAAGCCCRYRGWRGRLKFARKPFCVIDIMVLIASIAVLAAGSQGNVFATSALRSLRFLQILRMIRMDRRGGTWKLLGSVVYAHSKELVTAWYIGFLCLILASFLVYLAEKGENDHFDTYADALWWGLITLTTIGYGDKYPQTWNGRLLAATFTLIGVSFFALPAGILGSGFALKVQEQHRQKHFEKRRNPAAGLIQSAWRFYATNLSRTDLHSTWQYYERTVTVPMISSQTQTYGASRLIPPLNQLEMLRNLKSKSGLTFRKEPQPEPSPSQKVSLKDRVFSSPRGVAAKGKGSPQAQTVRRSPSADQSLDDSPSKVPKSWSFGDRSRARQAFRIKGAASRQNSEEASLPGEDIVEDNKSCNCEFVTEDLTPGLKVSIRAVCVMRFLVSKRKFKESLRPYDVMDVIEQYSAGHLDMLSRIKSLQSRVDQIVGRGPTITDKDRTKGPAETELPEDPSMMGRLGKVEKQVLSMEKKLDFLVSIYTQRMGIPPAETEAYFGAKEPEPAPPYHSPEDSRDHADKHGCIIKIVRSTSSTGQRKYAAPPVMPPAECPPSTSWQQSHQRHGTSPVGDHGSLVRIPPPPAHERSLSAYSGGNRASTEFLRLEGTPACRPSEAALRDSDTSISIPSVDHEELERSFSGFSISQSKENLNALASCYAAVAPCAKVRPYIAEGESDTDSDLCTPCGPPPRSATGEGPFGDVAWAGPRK
KCNQ2 pot baseline: further read-out of KCNQ2 pot, marked with its call; B-score; compound at 10 µM; measured here: initial fluorescence intensity artifact check;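 brightness before thallium and not channel activity; 0 = typical well and far values either way flag optical interference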
* = called active by the depositor. An excerpt, so the mix of outcomes need not match the whole.

structure	KCNQ2 pot	KCNQ2 pot baseline
CC(=O)OCCNc1nc(-c2ccccc2)nc2ccccc12	0.95	-1.6
CC1CCN(S(=O)(=O)c2ccc(NC(=O)c3ccncc3)cc2)CC1	1.2	-1.4
CCCn1nnnc1SCC(=O)Nc1sc(C)c(C)c1C#N	1.3	-1.9
CC1=CC(C)C(/C=N/N=C(N)N)C(C)C1 (centres undefined)	0.9	0.6
Cc1ccc(-n2nc3c(SCCN4CCOCC4)nnc(C)c3c2C)cc1	0.02	-1.1
COc1ccccc1Nc1nc(N)nc(CN2CCN(c3ccccc3)CC2)n1	0.22	-2.3
Cc1cccc(C(=O)N/N=C2/SCC(=O)N2Cc2ccccc2)c1	0.61	0.13
O=S(=O)(Nc1ccccn1)c1cnc(Cl)c(Br)c1	0.51	2
CCn1c(SC)nnc1C1CCN(CC(=O)Nc2ccccc2N2CCOCC2)CC1	1.7	0.43
CCCCNS(=O)(=O)c1ccc2nc(-c3cccnc3)cc(C(=O)NC3CC3)c2c1	1.9	0.65
C1CCC2=NCCCN2CC1	0.46	0.09
COc1ccc(C(=O)COC(=O)[C@H](C)Nc2ccc(C(F)(F)F)cc2[N+](=O)[O-])cc1	0.01	-1.2
CN(CCNC(=O)c1cc2c(-c3ccccc3F)nn(C)c2s1)C1CCCCC1	0.38	0.28
COc1ccc(N2CCN(c3ncccn3)CC2)cc1	0.49	-3.2
CC(C)(C)OC(=O)N1CC(O)CC1C(=O)OCC(=O)c1ccc(-c2ccccc2)cc1 (centres undefined)	0.44	-0.65

3 compounds out of the list above, arranged by their value in KCNQ2 pot, ascending:
structure	KCNQ2 pot	KCNQ2 pot baseline
Cc1ccc(-n2nc3c(SCCN4CCOCC4)nnc(C)c3c2C)cc1	0.02	-1.1
CN(CCNC(=O)c1cc2c(-c3ccccc3F)nn(C)c2s1)C1CCCCC1	0.38	0.28
CC1CCN(S(=O)(=O)c2ccc(NC(=O)c3ccncc3)cc2)CC1	1.2	-1.4

More records follow:
structure	KCNQ2 pot	KCNQ2 pot baseline
CCOC(=O)Nc1ccc2c(c1)N(C(=O)CCN1CCN3CCCC3C1)c1ccccc1CC2 (centres undefined)	0.05	-0.29
CCS(=O)(=O)N1CCCC(C(=O)NC2CCC(C)CC2)C1 (centres undefined)	0.68	-2.8
Cc1noc(C)c1C(=O)Nc1c(F)cc(F)cc1Br	0.77	-0.69
Cc1cc(CO)nn1-c1ccc([N+](=O)[O-])cc1	2.3	0.61
O=C(CN1c2ccccc2Sc2ccccc21)N/N=C/c1ccc(Cl)cc1Cl	1.7	0.2
O=S(=O)(c1cccc2nsnc12)N1CCNCC1	1.1	0.1
CN(C(=S)NC(=O)c1ccccc1)c1c(N)n(Cc2ccccc2)c(=O)[nH]c1=O	0.54	0.01
Cc1c(N2C(=O)CSC2=S)c(=O)n(-c2ccccc2)n1C	0.64	0.29
Cc1nn(C)cc1CNC(=O)C1CCC(=O)N(Cc2cccc(C(F)(F)F)c2)C1 (centres undefined)	1.1	-0.83
O=C(NNC(=S)NCc1ccco1)c1cccs1	1.3	0.21
Nc1ncn([C@@H]2O[C@H](CO)[C@@H](O)[C@H]2O)c(=O)n1	1.1	0.01
CCOc1ccccc1NC(=O)CN1CCN(Cc2ccccc2)CC1	0.04	-0.68
c1ccc(-n2nnnc2Sc2ncnc3sc4c(c23)CCCC4)cc1	1.9	-0.65
O=C(Nc1ccc(-c2cn3c(n2)SCC3)cc1)c1ccco1	0.04	-0.36
Cc1c(OCC(=O)NCCCn2ccnc2)ccc2c3c(c(=O)oc12)CCCC3	0.12	2.5

structure	KCNQ2 pot	KCNQ2 pot baseline
COc1ccc(NC(=O)c2cccnc2N2CCOCC2)cc1	1.3	-0.35
CC(OC(=O)c1ccccc1C(=O)N(C)c1ccccc1)C(=O)Nc1ccccc1[N+](=O)[O-] (centres undefined)	1.8	0.73
C=CCn1c(-c2cccn(Cc3ccccc3)c2=O)n[nH]c1=S	1.3	0.19
COC(=O)c1ccc(C(=O)Nc2ccc3nc(-c4ccncc4)[nH]c3c2)cc1	1.6	0.2
COCc1c(Br)c(C)nc(OCC(=O)N/N=C/c2ccco2)c1C#N	4.9	0
O=C(NCC1CCCO1)c1cc2n(n1)C(C(F)(F)F)CC(c1ccc(Br)cc1)N2 (centres undefined)	0.48	-1.4
O=C(N/N=C/c1ccc([N+](=O)[O-])o1)C1CCCC1	0.62	-1.2
COc1cccc(NC(=O)C2CCN(S(=O)(=O)c3ccc4c(c3)NC(=O)CO4)CC2)c1	0.57	0.49
O=C1COc2ccc(N3C(=O)c4ccccc4C3=O)cc2N1	1.8	-2.8
CC(C)c1ccc(C2C(C(=O)c3ccco3)=C(O)C(=O)N2CCN2CCOCC2)cc1 (centres undefined)	0.21	1.9
COc1ccc(OC)c(C2C(C(=O)O)c3ccccc3C(=O)N2C)c1 (centres undefined)	0.01	-1.2
COc1cccc(NC(=O)N2CCC(NC(=O)C3CCCCC3)CC2)c1	0.84	-0.19
Cc1cc(C(=O)COC(=O)c2ccc[nH]c2=O)c(C)n1C	0.65	-0.09
Cc1nc2ccccn2c1P(=O)(N1CCCCC1)N1CCCCC1	1	0.42
O=C(Nc1nnc(CCc2ccccc2)s1)c1ccccc1	0.87	-1.5

Already shown: entries from further up.
structure	KCNQ2 pot	KCNQ2 pot baseline
O=C(NNC(=S)NCc1ccco1)c1cccs1	1.3	0.21
Nc1ncn([C@@H]2O[C@H](CO)[C@@H](O)[C@H]2O)c(=O)n1	1.1	0.01
CCOc1ccccc1NC(=O)CN1CCN(Cc2ccccc2)CC1	0.04	-0.68

(listing goes on)
structure	KCNQ2 pot	KCNQ2 pot baseline
CNC(=O)c1ccsc1NC(=O)CS(=O)(=O)c1ccc(Cl)cc1	0.02	-1.3
Cn1nc(N)c2c(-c3ccccc3)c(C#N)c(N)nc21	0.07	0.03
C#CCOCCOCCOCCNc1nc(N2CCN(C(=O)[C@H](Cc3ccc(O)cc3)n3cc([C@@H](N)CC(C)C)nn3)CC2)nc(N2CCN(C(=O)[C@H](Cc3ccc(O)cc3)n3cc([C@@H](N)CC(C)C)nn3)CC2)n1	0.5	3.3
c1coc(-c2ccnc3nc(-n4cccc4)nn23)c1	1.6	0.84
O=C(O)C1Cc2ccccc2-c2ccccc2C1	0.48	-2.8
O=C(O)CCCCCNS(=O)(=O)c1ccc2c3c(cccc13)C(=O)N2	0.35	1.1
O=C(CCNS(=O)(=O)c1ccc(OC(F)(F)F)cc1)N1CCN(C/C=C/c2ccccc2)CC1	2.9	-0.31
CN(C)c1ccc(NC(=O)CSc2nnc(-c3ccco3)c(-c3ccco3)n2)cc1	0.41	-0.06
O=C(N/C(=C\c1ccc(Cl)cc1)C(=O)N1CCOCC1)c1ccco1	0.51	0.26
Fc1ccc(-c2cc(C(F)(F)C(F)F)[nH]n2)cc1	1.4	-0.1
CC1CCCCN1S(=O)(=O)c1ccc(NC(=O)CSc2nnnn2C)cc1 (centres undefined)	0.01	0.74
CC(=O)Nc1ccc(NC(=O)Nc2cccc3ccccc23)cc1	1.1	-3
CCN(CC)S(=O)(=O)c1nnc(NC(=O)c2ccco2)s1	2	0.07
CCC(C(=O)Nc1cccnc1)n1c(=O)[nH]c2ccccc2c1=O (centres undefined)	1.7	-0.2
CCOC(=O)CN1C(=O)N[C@@H](c2cccs2)C(C(=O)OC)=C1C	2	0.32

Each structure is followed by: KCNQ2 pot, KCNQ2 pot baseline
> Cc1ccc(NS(=O)(=O)Cc2ccccc2)cc1Cl
    1.1, -0.48
> COC(=O)c1ccc(C)c(NC(=O)CN(c2ccc3c(c2)OCO3)S(C)(=O)=O)c1
    0.3, 0.6
> CCOc1ccc(/C=N/NC(=O)c2ccc(CSc3nc4ccccc4[nH]3)cc2)cc1
    0.22, 1.5
> O=C(O)c1ccc(S(=O)(=O)N2CCC(NC(=O)C3CCCCC3)CC2)cc1
    2.7, 0.48
> CC(=O)c1ccccc1N(C(=O)c1ccco1)C(C(=O)NC1CCCC1)c1ccc(C)cc1 (centres undefined)
    0.1, -1.1
> Nc1nn(-c2ccccc2)nc1C(=O)OCc1ccccc1F
    0.78, -1.5
> CCCC(=O)NCCCc1nc2ccccc2n1CCC
    0.08, 1.3
> Cc1ccc2oc(=O)c3cnn(CC(=O)N4CCCc5ccccc54)c3c2c1
    0.17, 0.44
> S=C(Nc1ccc(Cl)cc1Cl)N1CCCCC1
    0.26, 0.16
> COc1ccc(CSc2nc(N3CCOCC3)c3c(c2C#N)CC(C)(C)OC3)cc1
    0.48, 1.8

Each structure is followed by: KCNQ2 pot, KCNQ2 pot baseline
> O=C(C(Cc1ccccc1)n1cccc1)N1CCN(c2ncccn2)CC1 (centres undefined)
    0.67, -0.87
> N#CC(c1ccc(Cl)nn1)c1ccccc1Cl (centres undefined)
    1.7, 0.67
> CC(OC(=O)c1ccccc1C(=O)N(C)c1ccccc1)C(=O)Nc1ccc(C(N)=O)cc1 (centres undefined)
    0.3, -1.5
> CCS(=O)(=O)NCC(c1cccnc1)N1CCN(c2ccccc2)CC1 (centres undefined)
    0.65, -0.38
> Oc1oc(-c2ccccc2Br)nc1/C=N/c1ccccn1
    0.64, 1.7
> CC(C)c1nc(SCC(=O)Nc2ccc(N3CCOCC3)cc2)c2ccccc2n1
    0.1, 0.09
> O=C(NCc1ccco1)C(c1cccs1)N(C(=O)Cc1cccs1)c1ccccc1 (centres undefined)
    0.84, -0.26
> CCCC(=O)Nc1ccc(C(=O)Nc2nnc(COCC)s2)cc1
    0.53, -0.77
> CCN(CC)CCCNC(=O)C1c2ccccc2C(=O)N1Cc1ccc(C)cc1 (centres undefined)
    0.47, 0.42
> CC(=O)c1c(O)cc(C(C)C)n(-c2ccccc2)c1=O
    0.24, -0.32

Full records, looked up by structure.
Entry for `CCS(=O)(=O)NCC(c1cccnc1)N1CCN(c2ccccc2)CC1` (centres undefined) : KCNQ2 pot = 0.65; KCNQ2 pot baseline = -0.38
Entry for `CC(OC(=O)c1ccccc1C(=O)N(C)c1ccccc1)C(=O)Nc1ccc(C(N)=O)cc1` (centres undefined) : KCNQ2 pot = 0.3; KCNQ2 pot baseline = -1.5

(more compounds)
Each structure is followed by: KCNQ2 pot, KCNQ2 pot baseline
> CN(C)CCCN1C(=O)c2cc3ccccc3cc2C1=O
    0.95, -1.4
> CCOC(=O)CSc1nc(C)[nH]c1[N+](=O)[O-]
    1.1, -0.08
> CCOC(=O)C1CCCN(S(=O)(=O)c2cn(C)c(=O)n(C)c2=O)C1 (centres undefined)
    0.17, -0.67
> Cc1c(=O)n(OCc2ccccc2F)c2ccccc2[n+]1[O-]
    1, 0.6
> Cc1ccc(OCCNS(=O)(=O)c2ccc(N3CCCC3=O)cc2)cc1C
    0.5, 0.74
> CC(C)CN(C(=O)COC(=O)CNC(=O)c1ccccc1F)c1c(N)n(Cc2ccccc2)c(=O)[nH]c1=O
    0.39, -1.8
> Cn1c(CN2CCOCC2)nnc1SCC(=O)Nc1cccc(C(F)(F)F)c1
    0.74, 0.33
> CCC(C)[C@H]1CN=C(N)N1CCc1cccc(F)c1 (some centres undefined)
    0.78, -0.8
> Cc1ccc(/C=C(\C#N)C(=O)NC(C)C)o1
    2.3, 0.1
> N/C(=N\OC(=O)C1CCCCC1)c1cccnc1
    1.1, -0.36

Each structure is followed by: KCNQ2 pot, KCNQ2 pot baseline
> CC12CCC(=O)N1C(C(=O)Nc1nc(-c3ccc(F)c(F)c3)cs1)CS2 (centres undefined)
    0.48, 0.81
> CCCN1CCN(C2CCCCC2NS(=O)(=O)c2ccccc2)CC1 (centres undefined)
    0.77, -2.8
> C[C@H](NC(=O)c1ccco1)C(=O)Nc1ccc(S(=O)(=O)N2CCCC2)cc1
    0.03, -0.36
> CN1CCN(S(=O)(=O)c2ccc(NC(=O)C3CCCCC3)cc2)CC1
    0.26, -3.7
> O=C(Cc1sc(-c2ccccc2Cl)nc1-c1ccccc1)Nc1ccccc1
    0.24, 1.8
> O=C(Cc1ccccc1)NN1C(=O)C2C3C=CC(C3)C2C1=O (centres undefined)
    1.6, 0.3
> Cc1ccc2c(c1)C=CC(C#N)N2C(=O)c1ccccc1 (centres undefined)
    0.98, -0.17
> O=C(O)c1ccc2c(c1)ncn2C1CCCCC1
    1, -0.99
> OC(CCN1CCCCC1)(c1ccccc1)c1ccccc1
    2.4, 0.37
> O=C(O)[C@H](Cc1ccccc1)N1C(=O)c2ccncc2C1=O
    0.03, -1.1

Each structure is followed by: KCNQ2 pot, KCNQ2 pot baseline
> Cc1csc(NC(=O)c2ccccc2C(=O)O)n1
    0.25, 1.4
> COc1ccccc1Nc1nc(N)nc(CSc2nc(C)cc(C)n2)n1
    1.6, -0.19
> CCOC(=O)CSc1ccc(S(=O)(=O)N(CC)CC)cc1[N+](=O)[O-]
    0.06, 2.1
> NS(=O)(=O)c1cc(C(=O)O)c(NCc2ccco2)cc1Cl
    0.89, 0.02
> O=C(Nc1cnccc1C(F)(F)F)NC1CCCCC1
    0.62, -0.39
> Cn1nc(C(=O)N2CCN(S(=O)(=O)/C=C/c3ccccc3)CC2)c2ccccc2c1=O
    0.18, 0.25
> Cc1ccc(N(CC(=O)NCc2ccc3c(c2)OCO3)S(C)(=O)=O)cc1
    0.56, 0.16
> COCCn1c(SCC(=O)Nc2nc(C)c(Cl)cc2Cl)nc2ccccc21
    0.7, 1.2
> COc1ccc(-c2csc(NC(=O)C3CC(=O)N(Cc4ccccc4)C3)n2)cc1OC (centres undefined)
    0.59, 0.35
> c1ccc(CCNc2ncnc3nc[nH]c23)cc1
    1, 0.04

Each structure is followed by: KCNQ2 pot, KCNQ2 pot baseline
> CC(C)C(C)(C#N)NC(=O)CSc1ncnc2sc(-c3ccccc3)cc12 (centres undefined)
    0.71, 0.79
> Cc1ccc(NC2=NC(c3ccccc3)n3c(nc(C)cc3=O)N2)cc1 (centres undefined)
    0.69, -0.37
> CSc1nc(C)c(CCO)c(=O)[nH]1
    0.14, 0.13
> CC1CCC(NC(=O)CC2Oc3ccccc3NC2=O)CC1 (centres undefined)
    0.06, 0.96
